MT1-MMP act inh: blocks activation of human MT1-MMP. AID 651647. P50281. 360,000 compounds, 0.061% hits. HT1080 RFP-PRO-GFP cells, GFP/RFP ratio fluorescence, overnight; percent of plate control window, DMSO zero. GFP/RFP ratio change, % at 20 µM;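 active = GFP/RFP ratio change of at least 30% with cell ATP level not reduced by more than half and red fluorescence within 50% of control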; note: strong numbers were not always called active
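Material: RFP-PRO-GFP reporter HT1080 cells. Dosing: single-point 20 µM compound, 1% DMSO. Controls: DMSO and RFP-L50D-GFP cell wells. Timing: cells overnight before dosing, compound overnight, 37 °C, 5% CO2. Measure: GFP/RFP fluorescence ratio.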
PABP FP inh: PABP-poly(A) binding inhibition. P11940. PABP-poly(A) RNA binding, fluorescence polarization. inhibition, % at 35 µM. 290,000 compounds, 1% hits. AID 2014;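 active = 50% or more with normal probe brightness, or confirmed in later tests; inconclusive = above 50% with abnormal brightness, or retests that disagree; inactive = below 50% or failed in later tests; about a fifth of its hits are not listed in these tables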;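 note: calls also rest on retests at 20 µM and on dose response follow-up; controls were probe without protein and protein plus probe with vehicle; some compounds called inactive have numbers as strong as hits; many hits fall short of the cut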
Target sequence (P11940 whole entry, looked up): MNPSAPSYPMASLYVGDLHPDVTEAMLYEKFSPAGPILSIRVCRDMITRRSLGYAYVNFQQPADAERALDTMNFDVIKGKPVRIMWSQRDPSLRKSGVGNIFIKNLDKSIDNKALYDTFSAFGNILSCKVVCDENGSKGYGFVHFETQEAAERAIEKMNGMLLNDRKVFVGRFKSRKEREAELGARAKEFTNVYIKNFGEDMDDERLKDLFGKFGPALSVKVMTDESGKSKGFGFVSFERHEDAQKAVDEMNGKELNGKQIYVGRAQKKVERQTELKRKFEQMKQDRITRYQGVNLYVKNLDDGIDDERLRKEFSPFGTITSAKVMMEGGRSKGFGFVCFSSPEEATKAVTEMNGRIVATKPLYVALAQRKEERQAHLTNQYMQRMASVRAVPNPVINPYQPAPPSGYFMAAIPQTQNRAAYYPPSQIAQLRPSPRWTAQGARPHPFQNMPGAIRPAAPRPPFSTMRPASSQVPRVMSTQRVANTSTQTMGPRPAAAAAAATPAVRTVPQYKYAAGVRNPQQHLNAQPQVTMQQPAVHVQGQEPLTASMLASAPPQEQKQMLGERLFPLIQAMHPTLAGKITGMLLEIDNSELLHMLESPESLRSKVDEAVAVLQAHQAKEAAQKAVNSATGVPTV
eIF4H FP inh: inhibitors of RNA binding by human eIF4H; inhibition, % at 35 µM; eIF4H fluorescence polarization binding assay; Q15056; 290,000 compounds, 0.94% hits;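 active = 50% or more with normal probe brightness, or confirmed in later tests; inconclusive = above 50% with abnormal brightness, or retests that disagree; inactive = below 50% or failed in later tests; about a fifth of its hits are not listed in these tables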;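 note: calls also rest on retests at 20 µM and on dose response follow-up; 0% = protein and probe with vehicle and 100% = probe without protein; strong numbers were not always called active; many hits fall short of the cut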
UUG fidelity: yeast start codon fidelity modulation. activity score, % at 18.7 µM. 350,000 compounds, 0.13% hits. S. cerevisiae UUG-firefly luciferase reporter, luminescence/redox ratio;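 active = replicate mean at a twofold rise or more, about +100% in these data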;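 note: firefly luciferase made from a UUG start codon reports start codon fidelity; reporter light over untreated wells divided by growth signal over untreated wells; some hits fall short of that in this replicate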
Env fusion inh: inhibitors of HIV Env-mediated cell fusion. HeLa-JRFL Env/CEM21 cell fusion, luciferase. inhibition, % at 12.3 µM. 360,000 compounds, 1.1% hits. AID 651610;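 active = mean replicate inhibition score of at least 50 and every replicate individually at or above 50; inconclusive = only one of the two criteria met; inactive = mean below 50 and not all replicates reaching 50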;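 note: 0% = plate neutral controls and 100% = maraviroc near 300 nM; one replicate is shown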
Rce1 inh: blocks yeast Ras-converting enzyme; Q03530; yeast membranes, quenched prenylated peptide cleavage fluorescence; calls only; 290,000 compounds, 0.27% hits; AID 2563;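 active = fall in fluorescence gain of 50% or more versus controls, with final raw signal at or below 3038400; inconclusive = same 50% fall but final raw signal above 3038400; inactive = fall in fluorescence gain under 50%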;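 note: plate controls were neutral control wells for no effect and wells lacking membranes for full effect; tested at 10 µM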
Target sequence (Q03530 whole entry, looked up): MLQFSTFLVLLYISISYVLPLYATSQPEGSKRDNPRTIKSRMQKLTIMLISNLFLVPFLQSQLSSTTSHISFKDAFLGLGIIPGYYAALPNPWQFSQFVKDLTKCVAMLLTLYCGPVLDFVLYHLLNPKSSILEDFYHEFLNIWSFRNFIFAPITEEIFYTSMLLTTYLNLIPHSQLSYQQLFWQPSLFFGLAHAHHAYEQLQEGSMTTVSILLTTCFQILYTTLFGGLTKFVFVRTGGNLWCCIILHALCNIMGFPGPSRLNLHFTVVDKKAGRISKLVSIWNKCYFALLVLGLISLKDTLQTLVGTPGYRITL
CSC inhib: blocks cancer stem cells; inhibition, % at 7.5 µM; AID 2717; cancer stem cell-like cells viability, luminescence; 300,000 compounds, 1.1% hits;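 active = mean at 75% or more and at least half the replicates too; inconclusive = mean and replicates disagree; tested in HMLE shEcad cells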;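 note: 0% = median of negative and 100% = median of positive control wells; the first replicate is given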
MT1-MMP act inh RFP: recorded beside MT1-MMP act inh, whose call it bears; RFP signal change, %; measured here: RFP expression control read;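 0 = vehicle wells; hits needed this value within 50% of zero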
* marks the source's active call; other numbers are inactive results; i = inactive; ? = inconclusive; . = not tested or not shown. No enrichment for hits. Share with any hit: about 3%.

1	CCOC(=O)C1CCCN(c2c(NCCc3ccc(Cl)cc3)c(=O)c2=O)C1 (stereo not drawn)
2	Cc1ccc(C(=O)NCCNC(=O)Cc2ccccc2)cn1
3	O=C(COC(=O)c1ccccc1Cl)NCc1cccs1
4	COC(=O)C1=C(C)OC(N)=C(C#N)C1c1cc2cc(C)ccc2nc1Cl (stereo not drawn)
5	O=C(c1cccc(N2CCCC2=O)c1)N1CCN(c2ccccc2)CC1
6	Cc1cccc(NC(=O)CN2C(=O)NC(C)(c3ccc4c(c3)OCO4)C2=O)c1 (stereo not drawn)
Screen / compound no.,1,2,3,4,5,6
MT1-MMP act inh,3,0,1,-5,10,-1
MT1-MMP act inh RFP,3,2,-2,2,6,5
PABP FP inh,0,-3,.,6,1,1
eIF4H FP inh,-21,-4,.,-6,-2,4
UUG fidelity,-21,-20,22,.,-14,-36
Env fusion inh,-5,22,-115,12,.,-121
Rce1 inh,i,i,.,i,.,i
CSC inhib,-3,.,.,-4,.,-5

7	O=S(=O)(c1ccc(N=C2NN=C(c3cc(F)ccc3F)CS2)cc1)N1CCOCC1
8	O=C(Nc1ccccc1C(F)(F)F)C(O)(c1ccccc1)C1CCCCC1 (stereo not drawn)
9	COc1ccc(OCCNC(=O)c2cccc(Oc3ccc(C(F)(F)F)cc3[N+](=O)[O-])c2)cc1
10	CCOC(=O)C1C(=O)OC(C)(C)C1C(CC)C(=O)c1c(C)cc(C)cc1C (stereo not drawn)
11	COC(=O)c1c(NC(=O)c2ccc([N+](=O)[O-])o2)sc2c1CCN(C(C)C)C2
12	COC(=O)CSc1nc2cc(OC)ccc2n1C
Screen / compound no.,7,8,9,10,11,12
MT1-MMP act inh,-20,3,2,-1,-6,-1
MT1-MMP act inh RFP,-30,0,-17,-5,-5,0
PABP FP inh,21,.,12,-6,-16,1
eIF4H FP inh,3,.,2,-1,-10,1
UUG fidelity,.,-15,-24,9,5,-10
Env fusion inh,?,28,37,76*,-25,2
Rce1 inh,.,.,i,i,i,i
CSC inhib,.,20,28,-5,29,-22

Sorted by value in Env fusion inh (lowest first): 3 from the list above.
| item | SMILES | Env fusion inh |
| --- | --- | --- |
| 12 | COC(=O)CSc1nc2cc(OC)ccc2n1C | 2 |
| 8 | O=C(Nc1ccccc1C(F)(F)F)C(O)(c1ccccc1)C1CCCCC1 (stereo not drawn) | 28 |
| 9 | COc1ccc(OCCNC(=O)c2cccc(Oc3ccc(C(F)(F)F)cc3[N+](=O)[O-])c2)cc1 | 37 |

The list goes on:
13	CN(Cc1ccccc1)C(=O)c1ccc(Nc2nc(C(N)COCc3ccccc3)cs2)nc1 (stereo not drawn)
14	COC(=O)C1=C(O)/C(=C\c2cc(C)n(-c3ccccc3F)c2C)N=C1C
15	COc1ccc(S(N)(=O)=O)cc1C(=O)OCC(=O)Nc1sccc1C#N
16	CC(C)CCC(CCN1CCCC1)c1ccc2c(c1)OCO2 (stereo not drawn)
17	Nc1c(N(C(=O)Nc2ccc(Cl)c(Cl)c2)C2CCCC2)c(=O)[nH]c(=O)n1Cc1ccccc1
18	CCOC(=O)c1oc2ccc(S(=O)(=O)Nc3ccc4c(c3)n(C)c(=O)n4C)cc2c1C
Screen / compound no.,13,14,15,16,17,18
MT1-MMP act inh,9,-14,-5,0,-18,4
MT1-MMP act inh RFP,-3,3,5,-1,-18,-21
PABP FP inh,.,1,.,0,1,6
eIF4H FP inh,.,27,.,-8,-5,3
UUG fidelity,-18,.,-21,-5,-5,-20
Env fusion inh,-12,-11,8,2,.,-4
Rce1 inh,.,i,.,i,i,.
CSC inhib,.,-4,-4,-7,-28,3

19	Cc1ccc(-n2nc(C)c3c2OC(N)=C(C#N)C3c2ccccc2F)cc1 (stereo not drawn)
20	O=C(NCCSc1ccc(Cl)cc1)c1ccc(CN2CCOCC2)cc1
21	CCN(CC)S(=O)(=O)c1ccc(C)c(NC(=O)CN(C)C)c1
22	CC(=O)NCc1ccc(-c2csc(NC(=O)CCCc3nc4ccccc4c(=O)[nH]3)n2)cc1
23	CCCCOc1ccc(C2CCC(C(C)=O)C(C)C2)cc1 (stereo not drawn)
24	O=C(N[C@@H](Cc1ccccc1)C(=O)OCc1ccccc1)c1ccco1
Screen / compound no.,19,20,21,22,23,24
MT1-MMP act inh,-1,6,3,0,-4,-1
MT1-MMP act inh RFP,3,-11,5,2,-8,2
PABP FP inh,7,-1,11,.,-1,.
eIF4H FP inh,8,-2,-17,.,-14,.
UUG fidelity,-3,.,.,-7,-5,7
Env fusion inh,.,-7,3,.,-2,-4
Rce1 inh,i,i,i,.,i,.
CSC inhib,.,2,-6,-2,19,-1

25	COC(=O)C1=CNC=C(C(=O)OC)C1c1cccc(OC)c1
26	CCOc1ccc(S(=O)(=O)N2CCc3ccccc3C2)cc1
27	CCCc1cc(=O)oc2c(C)c(O[C@@H]3O[C@H](CO)[C@@H](O)[C@H](O)[C@H]3O)ccc12
28	COc1ccc(OC)c(NC(=O)CSc2nc(=O)n(CCN3CCOCC3)c3c2CCC3)c1
29	CSCCC1NC(=O)N(C(C)C(=O)Nc2cc(Cl)cc(Cl)c2)C1=O (stereo not drawn)
30	O=C(CSc1nnc(-c2ccccc2)n1Cc1ccco1)NCc1ccc2c(c1)OCO2
Screen / compound no.,25,26,27,28,29,30
MT1-MMP act inh,-1,-7,-24,-4,5,1
MT1-MMP act inh RFP,0,-7,-3,-3,5,0
PABP FP inh,5,-4,-3,.,8,4
eIF4H FP inh,-3,-1,1,.,2,0
UUG fidelity,-9,-5,-10,-2,-16,.
Env fusion inh,.,.,22,10,15,.
Rce1 inh,i,i,i,i,i,i
CSC inhib,-26,-3,-4,-10,1,4

31	COc1ccc(OC)c(C2NC(=S)NC3=C2N2CCC3CC2)c1 (stereo not drawn)
32	CC(=O)Nc1ccc(NC(=O)[C@@H](NC(=O)N2C[C@H]3C[C@@H](C2)c2cccc(=O)n2C3)C(C)C)cc1
33	CCOc1ccc(C(=O)N/N=C(/C)C2C(=O)c3ccccc3C2=O)cc1
34	COc1ccc2c(c1)OC(=O)CC2c1ccccc1OC (stereo not drawn)
35	CN(C)CCN(C(=O)c1ccc2ccccc2c1)c1nc2c(F)cccc2s1
36	Cc1nnc(SCC2=C(C(=O)O)N3C(=O)C(NC(=O)Cn4nc(C(F)F)cc4C)C3SC2)s1 (stereo not drawn)
Screen / compound no.,31,32,33,34,35,36
MT1-MMP act inh,1,4,4,-3,1,0
MT1-MMP act inh RFP,-1,3,-1,3,4,4
PABP FP inh,4,-2,3,.,8,-6
eIF4H FP inh,1,-3,0,.,3,20
UUG fidelity,.,-20,.,1,-16,.
Env fusion inh,-11,.,-4,-65,-1,-3
Rce1 inh,i,.,i,.,i,i
CSC inhib,-12,-8,3,.,6,-3

37	Cc1ccccc1-c1cc(C(=O)O)n(CC2CC(c3cccnc3)=NO2)n1 (stereo not drawn)
38	CN(C)S(=O)(=O)c1cccc(NC(=O)COC(=O)c2ccc([N+](=O)[O-])o2)c1
39	Cc1c(NC(=O)CCc2ccc(S(=O)(=O)N3CCOCC3)cc2)c(=O)n(-c2ccccc2)n1C
40	O=c1[nH]cnc2scc(-c3cccs3)c12
41	CC1CC2(CCCC2)Nc2ccc(F)cc21 (stereo not drawn)
42	CNS(=O)(=O)c1cccc(C(=O)OCC(=O)N(CCC#N)c2ccccc2)c1
Screen / compound no.,37,38,39,40,41,42
MT1-MMP act inh,-1,-1,1,6,7,3
MT1-MMP act inh RFP,2,3,3,3,10,4
PABP FP inh,.,2,.,3,5,-11
eIF4H FP inh,.,2,.,0,9,-8
UUG fidelity,-19,.,-7,1,4,.
Env fusion inh,-15,-26,6,.,21,0
Rce1 inh,.,i,.,i,i,.
CSC inhib,3,-4,.,-11,-5,-11

43	CCCc1cc(=O)oc2cc(OCC(=O)Nc3ccc(CN4CCOCC4)cc3)c(Cl)cc12
44	O=C(Cc1ccccc1)NCc1nc2ccccc2[nH]1
45	O=C(NCc1ccccn1)C1CCN(S(=O)(=O)c2cc(Cl)ccc2Cl)CC1
46	CCc1onc(C)c1C(=O)Nc1ccc2c(c1)OCO2
47	COc1ccc(CCN2CC(C(=O)N(C)CC(=O)Nc3cccc(F)c3)CC2=O)cc1OC (stereo not drawn)
48	COCCCNC(=O)CCc1c(C)nc2c(-c3ccc(F)cc3)c(C)nn2c1C
Screen / compound no.,43,44,45,46,47,48
MT1-MMP act inh,8,10,-2,0,-4,4
MT1-MMP act inh RFP,2,1,2,4,2,2
PABP FP inh,-5,.,34,3,0,-5
eIF4H FP inh,-25,.,0,0,14,-1
UUG fidelity,0,-16,-33,-13,-12,0
Env fusion inh,3,5,13,0,11,11
Rce1 inh,i,i,i,i,i,i
CSC inhib,44,-9,-5,-1,1,-10

49	O=C1C2C(C(=O)N1/N=C/c1cccc([N+](=O)[O-])c1)C1C=CC2C12CC2 (stereo not drawn)
50	Cc1ccc(C)c2c1[nH]c1ccc([N+](=O)[O-])cc12
51	N#Cc1c(-c2ccc3c(c2)OCO3)csc1N
52	Cc1ccc(C(=O)COC(=O)COc2ccccc2C)cc1
53	COc1ccc(/C(N)=N/OC(=O)CN(C)S(=O)(=O)c2ccc(C)cc2)cc1
54	O=C(O)c1ccc(N2CC3CC(C2)c2cccc(=O)n2C3)c(NS(=O)(=O)c2cccc(C(F)(F)F)c2)c1 (stereo not drawn)
Screen / compound no.,49,50,51,52,53,54
MT1-MMP act inh,-1,2,2,2,4,3
MT1-MMP act inh RFP,0,-1,-4,5,-1,1
PABP FP inh,-1,2,1,-2,-2,0
eIF4H FP inh,-9,7,-10,-13,0,0
UUG fidelity,.,-1,-13,-25,.,.
Env fusion inh,-19,i,i,9,4,17
Rce1 inh,i,i,i,.,.,i
CSC inhib,-7,-4,-7,1,.,-6

55	CCOc1ccc(CNc2ccc(CNc3ncn[nH]3)cc2)cc1
56	Cc1cccc(NNC(=O)C(=O)NNc2cccc(C)c2)c1
57	COCCNC(=O)C1CCC(CNS(=O)(=O)c2ccccc2)CC1 (stereo not drawn)
58	COc1ccccc1NS(=O)(=O)c1ccc(C)c(C(=O)NCC(c2cccs2)N2CCOCC2)c1 (stereo not drawn)
59	O=C(COC(=O)c1cnccn1)NCCc1ccccc1
60	Cc1ccc(S(=O)(=O)N2[C@@H](c3ccc(Br)cc3)C(C(=O)O)=C[C@H]2C(C)(C)C)cc1
Screen / compound no.,55,56,57,58,59,60
MT1-MMP act inh,0,-1,-2,-2,6,1
MT1-MMP act inh RFP,-4,-2,2,-2,8,-3
PABP FP inh,1,2,-3,.,6,.
eIF4H FP inh,6,-1,-1,.,1,.
UUG fidelity,-8,-20,0,-15,-18,1
Env fusion inh,6,4,-2,-5,-21,-23
Rce1 inh,i,i,i,.,i,.
CSC inhib,1,93*,-13,.,6,22

61	CCS(=O)(=O)c1ccc2c(c1)N(S(C)(=O)=O)CC(C(=O)NN)O2 (stereo not drawn)
62	CC(C)Cn1c(CN2CCN(c3ccccc3F)CC2)nc2c1c(=O)[nH]c(=O)n2C
63	CCOC(=O)C[C@H]1c2ccccc2S(=O)(=O)N1C1CC1
64	CN(C)C(=O)Cn1nc(-c2ccccc2)c2ccccc2c1=O
65	CCOC(=O)c1ccc(S(=O)(=O)NNC(=O)c2ccc3c(c2)nc(C)n3CC)cc1
66	O=C(COC(=O)C12CC3CC(CC(C3)C1)C2)NNC(=O)c1ccccc1
Screen / compound no.,61,62,63,64,65,66
MT1-MMP act inh,4,0,4,-1,0,-4
MT1-MMP act inh RFP,4,2,3,2,4,4
PABP FP inh,3,2,.,-8,-2,.
eIF4H FP inh,-4,-1,.,-5,-3,.
UUG fidelity,.,6,-22,-10,-6,-9
Env fusion inh,13,-5,4,-8,-6,-4
Rce1 inh,i,i,i,i,i,.
CSC inhib,9,-12,0,-1,9,8
